Lassa entry inh: Lassa virus entry inhibition. Potency, µM (series often up to 37.9 µM), without a hit: at the top dose activity change, negative = inhibition, hits mostly inhibitors. 1.2% of 300,000 active. Lassa virus pseudotype entry inhibition, cell reporter; control for the full effect not named in the record; active means well fitted inhibition curve with a large enough effect; inconclusive means small, poorly fitted or top-dose-only effect, or effect the other way; inactive means flat fitted curve, though single readings scatter; tested in HEK293 cells; further: on the % scale 0 is the no-effect control and ±100 the full control effect; nearly all actives have a fitted effect of over 50% in size; luciferase read-out
RE007 growth inh: less growth of the S. pombe RE007 Vpr strain; 0.21% of 360,000 active; Potency, µM (top dose mostly 92.2 µM), for the others: top-dose activity change, negative = less growth; S. pombe RE007 Vpr strain, BacTiter-Glo ATP luminescence, 24 h; control for the full effect not named in the record; AID 651644; active = well fitted falling curve with a large enough effect; inconclusive = small, poorly fitted or top-dose-only effect; inactive = no such curve, though single readings can be large or run the other way;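 further: on the % scale 0 is the no-effect control and ±100 the full control effect; nearly all actives have a fitted effect of over 50% in size; the assay follows cell death caused by Vpr and the record does not say whether a fall means rescue or toxicity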
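Fission yeast RE007 carrying one integrated HIV-1 vpr copy, seeded at OD 0.01 in PMG+AL medium with 23 nL pinned compound. Grown 24 h at 30 degrees; viability read by BacTiter-Glo luminescence after 5 min.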
StopGo reporter: FMDV 2A StopGo reporter, luciferase signal | human cells with a luciferase reporter of 2A StopGo recoding; control for the full effect not named in the record | Potency, µM (doses to about 57.9 µM), for the others: at the highest dose signal change, negative = less light | 1.2% of 410,000 active; active = well fitted falling curve with a large enough effect; inconclusive = small, poorly fitted or top-dose-only effect; inactive = no such curve, though single readings can be large or run the other way; tested in HEK293T cells; further: on the % scale 0 is the no-effect control and ±100 the full control effect; nearly all actives have a fitted effect of over 45% in size; luciferase light after 4 h
Cruzain Triton: inhibitors of Trypanosoma cruzi cruzain with detergent; P25779; purified cruzain, Z-FR-AMC fluorescence, 0.01% Triton; Potency, µM, for inactives: max response, negative = inhibition, most hits filed as inhibitors; 0.43% of 200,000 active;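 further: plate controls were neutral wells for no effect and buffer without enzyme for full effect; nearly all actives have a fitted effect of over 40% in size; top concentration of the series not given in the record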
Target sequence (P25779 123-467 limits assumed): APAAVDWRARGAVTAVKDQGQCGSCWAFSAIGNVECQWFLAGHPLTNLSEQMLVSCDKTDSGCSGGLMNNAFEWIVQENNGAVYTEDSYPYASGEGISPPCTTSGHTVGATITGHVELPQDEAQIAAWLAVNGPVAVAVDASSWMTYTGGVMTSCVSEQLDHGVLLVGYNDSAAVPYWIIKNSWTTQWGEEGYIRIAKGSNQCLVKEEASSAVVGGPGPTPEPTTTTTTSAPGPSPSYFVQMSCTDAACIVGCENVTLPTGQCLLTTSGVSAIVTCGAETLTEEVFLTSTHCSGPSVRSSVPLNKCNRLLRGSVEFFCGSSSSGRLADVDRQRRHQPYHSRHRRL
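Cruzain (1.5 nM) preincubated 15 min at RT with compound in 100 mM sodium acetate pH 5.5, 5 mM DTT, 0.01% Triton X-100. Reaction started with 2 uM Z-FR-AMC; AMC fluorescence (ex 360/em 450 nm) change over 60 s gave rate.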
NS1 inh: inhibitors of influenza NS1 protein function; Potency, µM (series often up to 46.1 µM), without a hit: at the top dose activity, positive = more growth; 0.4% of 270,000 active; S. cerevisiae slowed by influenza A NS1, growth recovery by OD600; active means well fitted rising curve with a large enough effect; inconclusive means small, poorly fitted or top-dose-only effect; inactive means no such curve, though single readings can be large or run the other way; further: nearly all actives have a fitted effect of over 50% in size
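Compounds were scored for reversing the slow growth caused by influenza A NS1 in S. cerevisiae, measured by optical density at 600 nm. Assay medium contained 2% galactose at pH 6.0; NS1-free yeast of the same strain were the positive control.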
SARS PLP yeast: blocks SARS-CoV papain-like protease in a yeast assay; 0.19% of 330,000 active; AID 485353; Potency, µM (titrated, usually from 32.9 µM), for inactives: at the highest dose activity, positive = growth rescue; S. cerevisiae expressing SARS-CoV PLpro, growth rescue; control for the full effect not named in the record; active means well fitted rising curve with a large enough effect; inconclusive means small, poorly fitted or top-dose-only effect; inactive means no such curve, though single readings can be large or run the other way; further: 0% is about no effect; nearly all actives have a fitted effect of over 55% in size; growth read by luminescence after 48 h
Marburg entry inh: inhibitors of Marburg virus binding or cell entry | Marburg virus pseudotyped entry inhibition, cell reporter; control for the full effect not named in the record; about a third of the inactives were read at about 46 µM | Potency, µM (series often up to 37.8 µM), for the others: at the top dose activity change, negative = inhibition, usual class: inhibitors | 1.8% of 300,000 active; active = well fitted inhibition curve with a large enough effect; inconclusive = small, poorly fitted or top-dose-only effect, or effect the other way; inactive = flat fitted curve, though single readings scatter; tested in HEK293 cells; about a fifth of its hits are not listed in these tables; further: on the % scale 0 is the no-effect control and ±100 the full control effect; luciferase read-out
Cruzain noTriton: blocks cruzain activity in detergent-free assay | 2.3% of 200,000 active | AID 1476 | Potency, µM, without a hit: max response, negative = inhibition, most hits filed as inhibitors | purified cruzain, Z-FR-AMC fluorescence, no detergent;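 further: plate controls were enzyme without inhibitor for no effect and buffer without enzyme for full effect; nearly all actives have a fitted effect of over 40% in size; top concentration of the series not given in the record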
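Purified cruzain at 1.5 nM, pre-incubated 15 min with compound at room temperature in 100 mM sodium acetate pH 5.5, 5 mM DTT, 0.00005% Triton X-100. Reaction started with 2 uM Z-FR-AMC; AMC fluorescence increase over 60 s gives rate.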
* marks the source's active call; other numbers are inactive results; ? = inconclusive; / = not tested or not shown; & = joins results of further samples; [ ] = dose if it differs, or a comment. Unless noted, the call rests on the fitted dose curve; in most records, active means well fitted curve in the direction sought with a large enough effect; inconclusive means small, poorly fitted or top-dose-only effect, or another doubt; inactive means no such curve, though single readings can be large; an effect the other way counts as inactive or inconclusive. Potency means the concentration at half of the fitted maximal effect.

cpd	Molecule	Lassa entry inh	RE007 growth inh	StopGo reporter	Cruzain Triton	NS1 inh	SARS PLP yeast	Marburg entry inh	Cruzain noTriton
1	CCOc1ccc(-c2nc(Cn3c(=O)cc(C)c4c(C)nn(-c5ccccc5)c43)c(C)o2)cc1	0%[46.1 µM]	/	33%[activator]	-1.4%	/	/	/	-9%
2	CCC(Oc1ccccc1)C(=O)Nc1nc2ccccc2[nH]1 (stereo not given)	14%	4%	22%	2.5%	-30%	-7%	2%	-16%
3	Cc1ccc(NC(=O)C(=O)NCCN2CCN(C(=O)C(c3ccccc3)c3ccccc3)CC2)cc1	-13%	5%	?	1.2%	15%	-5%	-15%	16%
4	Cc1noc(C)c1C(=O)N1CCCC(Nc2ccc(C(C)C)cc2)C1 (stereo not given)	/	6%	-14%	/	8%	2%	/	/
5	O=C(Cn1ncc2c3ccccc3n(Cc3ccccc3F)c2c1=O)NCCN1CCOCC1	/	-8%	-26%	/	0%	-3%	/	/
6	CN1CCN(C(=O)/C(=C/c2cn(S(=O)(=O)N(C)C)c3ccccc23)NC(=O)c2ccccc2F)CC1	/	3%	-25%	/	2%	4%	/	/
7	Cc1cccc(C(=O)N2CCN(c3ncnc4c3cnn4-c3ccccc3)CC2)c1	?	22%	-44%	-8.3%	-14%	18%	?	?
8	N#Cc1ccccc1OCC(=O)NNC(=O)CCC1CCCC1	5%	-2%	1%	/	/	0%	11%	/
9	O=C(CSc1nc2ccccc2c(=O)[nH]1)Nc1ccc(C(=O)O)cc1	0%	17%	1%	/	/	2%	6%[46.1 µM]	/
10	c1csc(-c2nc3ccccn3c2NC2CCCCC2)c1	?	-19%	?	/	/	-3%	?	/
11	CCn1c2c(c(=O)n3ncc(C(=O)Nc4ccc(F)cc4Cl)c13)CN(Cc1ccc(OC)cc1)CC2	-21%[46.1 µM]	/	-7%	-3.8%	/	/	/	3%
12	O=C(NCc1ccco1)C1(c2ccc(Cl)cc2)CCCC1	-7%	8%	-12%	0.6%	-46%	-12%	-1%	-5%
13	Cn1c(=O)c2c(nc(SCC(=O)O)n2Cc2cc3c(cc2Cl)OCO3)n(C)c1=O	?	2%	21%	1.8%	4%	8%	7%	-14%
14	CCOc1ccc2[nH]c3c(NCCC(C)C)ncnc3c2c1	/	14%	7%	/	-6%	1%	/	/
15	Cc1cc(NC(=O)CSc2nc3c(c(=O)n2CCc2ccccc2)SC(C)C3)no1 (stereo not given)	-12%	-5%	-21%	-6.3%	-4%	8%	21%	-12%
16	COc1ccc(NC(=O)CSc2nnc(CNC(=O)c3ccco3)o2)c(OC)c1	28%	-2%	12%	-1.9%	-8%	-14%	5%	3%
17	COc1ccc(C(c2nnnn2C2CCCCC2)N2CCN(c3ccccc3)CC2)cc1 (stereo not given)	/	/	/	2.5%	-6%	-17%	/	6%
18	COc1ccccc1/C=C1\CCC(C2CCCC2)C1=O (stereo not given)	/	-22%	62%[activator]	/	3%	5%	/	/
19	Cc1ccc(N(CC(=O)NC2CCCCC2)C(=O)CCCC(=O)Nc2ccccn2)c(C)c1	1%	3%	95%[activator]	/	-16%	0%	?	/
20	CCc1ccccc1Cn1c(=O)oc2cccnc21	5%	16%	-6%	/	-3%	0%	-8%	/
21	CC(Nc1nc(-c2ccc3c(c2)NC(=O)CO3)cs1)c1ccccc1 (stereo not given)	-14%	20%	-17%	/	5%	0%	?	/
22	N#C/C(=N\Nc1ccc(F)cc1)C(=N)N1CCCCC1	?	5%	/	-5.8%	-18%	21%	?	3%
23	CN1CCN(S(=O)(=O)c2ccc(Br)s2)CC1	13%	1%	12%	-0.6%	-11%	-3%	-2%	0%
24	Cn1nc(-c2ccccc2F)c2cc(C(=O)Nc3cc(F)ccc3F)sc21	?	/	-12%	-2.9%	/	/	6%[46.1 µM]	-23%
25	O=C1CC(c2ccco2)CC(O)=C1C=NCCN1CCN(C2CC(=O)N(c3ccccc3)C2=O)CC1 (stereo not given)	11%	-19%	-17%	-1.8%	-24%	-20%	24%	3%
26	C=CCn1c(SCC(=O)Nc2cccnc2Cl)nnc1-c1ccc(C(C)(C)C)cc1	-11%	18%	-11%	-8.3%	-14%	4%	9%	9%
27	CCOC(=O)c1c(C)c(C(=O)NCC2CCCO2)c(C)n1CC (stereo not given)	7%	5%	-14%	-2.7%	-1%	2%	?	-6%
28	O=C(Nc1cccc2c1CCCC2)C1CCN(C(=O)NC2CCCCC2)CC1	2%	11%	0%	2.3%	-25%	23%	6%	-4%
29	O=C(c1ccccc1Cl)N1CCC(N2CCC(C(=O)N3CCCC3)CC2)CC1	/	12%	-3%	/	-1%	-3%	/	/
30	CC(=O)[C@@]12O[C@@H]1C[C@H]1[C@@H]3CC[C@H]4C[C@@H](O)CC[C@]4(C)[C@H]3CC[C@@]12C	/	1%	-2%	/	-7%	-4%	/	/
31	Cn1nc(-c2ccc(C(=O)Nc3cccnc3)cc2)c2ccccc2c1=O	-16%	-6%	?	-7.0%	1%	?	-11%&-11%	-11%
32	CN(C)c1ccc(-c2cccc(C3CC=CC4C3C(=O)N(Cc3ccccc3)C4c3ccc4ccccc4c3)c2)cc1 (stereo not given)	/	-1%	-11%	/	-1%	2%	/	/
33	CCOC(=O)C1=C(Nc2ccccc2)CC(C)(O)C(C(=O)OCC)C1c1ccc(Cl)cc1 (stereo not given)	?	-16%	?	-2.5%	-7%	-1%	?	4%
34	COCCCNC(=O)C1CC(=O)OC1c1ccc(OC)c(OC)c1 (stereo not given)	-1%	-6%	-5%	-4.3%	0%	7%	-3%	-5%
35	Cc1ccccc1OCC(O)CN1CCN(c2ccc(Cl)cc2)CC1 (stereo not given)	/	-6%	-14%	/	-5%	-3%	/	/
36	COc1ccc(N2CCN(CCCNC(=O)c3cc4sccc4n3C)CC2)cc1	-14%	-6%	-25%	10%	-4%	3%	?	-6%
37	COc1ccc(S(=O)(=O)Nc2ccc3c(c2)CCCN3S(=O)(=O)c2ccc(C)cc2)cc1F	?	/	-12%	-2.3%	/	/	/	-25%
38	Cc1nc(N)c(C#N)c(-c2cccnc2)c1C	9%	16%	-24%	-7.5%	14%	5%	17%	1%
39	Cc1cccc(NC(=O)COc2ccc(/C=N\n3cnnc3)cc2)c1	15%	-11%	-20%	-5.8%	-8%	15%	3%	-8%
40	COc1ccc(NC(=O)C(c2ccccc2)N2Cc3ccccc3C2=O)cc1 (stereo not given)	7%[46.1 µM]	/	40%[activator]	-5.7%	/	/	/	6%
41	COc1cc(NC(=O)C2CCCN(S(=O)(=O)c3cn(C)cn3)C2)cc(OC)c1 (stereo not given)	2%[46.1 µM]	/	-4%	-0.4%	/	/	/	-7%
42	CCOC(=O)Cc1csc(N/N=C/c2ccc(Cl)cc2)n1	-9%	5%	-29%	/	3%	0%	?	/
43	CC1CC(C)CN(CCCNC(=O)CCC(=O)N2CCOc3ccccc32)C1 (stereo not given)	/	-5%	-13%	/	4%	-4%	/	/
44	O=C(CNC(=O)c1sc2ccccc2c1Cl)OCc1ccccc1	-10%	-21%	-7%	/	-20%	-8%	10%	/
45	CC(C)CCNC(=O)C1CC(c2ccccc2C(F)(F)F)=NO1 (stereo not given)	/	-14%	31%[activator]	/	-5%	-3%	/	/
46	CC(Oc1ccc(Cl)cc1Cl)c1nc(-c2ccccn2)no1 (stereo not given)	-13%	-9%	/	-6.6%	-93%	-8%	10%	10%
47	Cc1ccc(CCNC(=O)C2CCCN(c3ncnc4c3nc3n4CCCCC3)C2)cc1 (stereo not given)	/	-1%	-19%	/	-13%	-3%	/	/
48	CCn1c(SCC(=O)NCCOC)nc2sc3c(c2c1=O)CCCC3	2%	1%	-2%	-0.3%	-10%	3%	-8%	4%
49	CCCc1cc(=O)oc2c(CNc3ccc(OCC)cc3)c(O)ccc12	/	-3%	-16%	/	-13%	0%	/	/
50	COc1cc(OC)cc(C(=O)Nc2nc3ccc(S(C)(=O)=O)cc3s2)c1	-15%[46.1 µM]	1%	1%	/	/	-4%	?	/
51	COc1ccc(-c2nc(N)n(C(=O)c3ccccc3)n2)cc1	13%	-8%	21%	/	-4%	0%	-15%[46.1 µM]	/
52	O=C(Nc1ccc(Cl)c(Cl)c1)Nc1ccc(N2CCCC2)c(S(=O)(=O)Nc2ccccc2Cl)c1	8.9µM*	-4%	-3%	-0.9%	-6%	2%	?	?
53	S=c1[nH]nc(-c2cc(-c3ccccc3)n[nH]2)n1/N=C/c1cccs1	-14%	-13%	?	/	2%	0%	21%[46.1 µM]	/
54	Cc1ccc(Nc2nc(N)c([N+](=O)[O-])c(N3CCCC(C)C3)n2)cc1C (stereo not given)	-6%	8%	?	-10.0%	10%	11%	2.2µM*	-7%
55	Cn1c(=O)c2c(nc(Br)n2C)n(C)c1=O	-3%	3%	-3%	1.1%	3%	5%	14%	1%
56	CCOC(=O)c1c(NC(=O)c2ccc(S(=O)(=O)N(C)CC3CCCO3)cc2)sc2c1CC(C)(C)NC2(C)C (stereo not given)	?	-5%	4%	/	0%	1%	7%[46.1 µM]	/
57	C=CCn1c(C)nnc1SCC(=O)NC1CCCCC1	/	-5%	-8%	/	-1%	-4%	/	/
58	Cc1ccc(SCC(=O)OCC(=O)NCc2cccs2)cc1C	-1%	1%	25%	/	/	1%	0%[46.1 µM]	/
59	Cc1nn2c(N3CCN(CCO)CC3)c3c(nc2c1-c1ccccc1)CCCC3	9%	-21%	0%	/	-2%	0%	?	/
60	Cn1cnnc1SCc1ccc(C#N)cc1	16%	6%	1%	3.8%	-5%	1%	?	-8%
61	COCCCNC(=O)Cn1c(=O)n(-c2cccc(C)c2)c(=O)c2c3c(sc21)CN(C(C)=O)CC3	/	/	11%	-1.4%	/	/	7%[46.1 µM]	-6%
